Assay outcomes deposited in PubChem BioAssay by National Center for Advancing Translational Sciences (NCATS).
EPAC2 antag: Validation qHTS for antagonist of cAMP-regulated guanine nucleotide exchange factor 4 (EPAC2). AID 1645886, 2021. EPAC2 Rap1B BODIPY-GDP exchange, fluorescence. Potency, µM (series often up to 112 µM), without a hit: at the highest dose activity, negative = inhibition, hits mostly inhibitors. Rap guanine nucleotide exchange factor 4 (Homo sapiens), Q8WZA2. 1.7% of 16,000 active; active means well fitted inhibition curve with a large enough effect; inconclusive means small, poorly fitted or top-dose-only effect; inactive means no such curve, though single readings can be large or run the other way;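 further: 100% = activation by cAMP agonist control; nearly all actives have a fitted effect of over 40% in size; the record reuses the description of the EPAC1 agonist screen; inactives centre near -10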
Target sequence (Q8WZA2 whole entry, looked up): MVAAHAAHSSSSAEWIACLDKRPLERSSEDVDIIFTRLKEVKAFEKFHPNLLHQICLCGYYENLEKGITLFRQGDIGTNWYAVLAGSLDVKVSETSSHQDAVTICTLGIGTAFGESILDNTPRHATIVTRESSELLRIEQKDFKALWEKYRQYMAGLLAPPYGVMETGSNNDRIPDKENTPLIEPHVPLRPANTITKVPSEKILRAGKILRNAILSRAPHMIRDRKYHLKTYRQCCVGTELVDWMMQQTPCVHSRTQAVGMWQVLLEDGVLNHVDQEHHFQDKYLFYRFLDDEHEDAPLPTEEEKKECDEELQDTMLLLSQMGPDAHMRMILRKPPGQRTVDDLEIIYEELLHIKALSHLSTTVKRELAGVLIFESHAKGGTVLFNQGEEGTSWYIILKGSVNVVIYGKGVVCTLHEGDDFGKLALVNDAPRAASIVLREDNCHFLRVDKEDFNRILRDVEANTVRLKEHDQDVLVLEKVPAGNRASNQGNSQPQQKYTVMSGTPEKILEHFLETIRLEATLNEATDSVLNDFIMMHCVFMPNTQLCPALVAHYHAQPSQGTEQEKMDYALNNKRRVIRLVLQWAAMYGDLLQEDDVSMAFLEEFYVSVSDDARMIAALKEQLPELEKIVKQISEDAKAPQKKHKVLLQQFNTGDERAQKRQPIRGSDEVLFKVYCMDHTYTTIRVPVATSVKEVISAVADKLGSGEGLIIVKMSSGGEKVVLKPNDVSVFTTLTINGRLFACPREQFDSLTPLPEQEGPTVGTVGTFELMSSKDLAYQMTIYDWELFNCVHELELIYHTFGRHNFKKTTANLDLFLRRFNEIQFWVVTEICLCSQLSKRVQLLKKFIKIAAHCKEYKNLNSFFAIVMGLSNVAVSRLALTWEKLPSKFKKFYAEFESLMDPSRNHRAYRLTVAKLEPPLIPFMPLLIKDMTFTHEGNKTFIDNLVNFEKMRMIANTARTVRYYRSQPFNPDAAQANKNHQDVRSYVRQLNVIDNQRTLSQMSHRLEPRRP
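Fluorescent exchange read-out: 100 nM EPAC2 with 250 nM RAP1B–BODIPY-GDP and 50 uM GDP; BODIPY-GDP release lowers fluorescence. Read at 480/540 nm every 5 min for 30 min at room temperature; normalized to 6.5 mM cAMP.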
Numbers without * were called inactive; u = inconclusive; & = joins results of further samples; ! = repeats disagree; [ ] = dose if it differs, or a comment. Potency means the concentration at half of the fitted maximal effect. Only part of the results is shown, so the mix of outcomes need not match the whole.

SMILES	EPAC2 antag
CS(=O)(=O)Nc1cccc(-c2ccc3ncnc(N4CCNCC4)c3c2)c1	-4.4%
CCn1cc(CN2CCOc3ccc(C(O)C4CCCCC4)cc3C2)c(C)n1 (centres undefined)	-24.4%
COc1cc2nc(N3CCCN(C)CC3)nc(NC3CCN(Cc4ccccc4)CC3)c2cc1OC	-3.2%
O=S(=O)(c1ccccc1)N1CCC2(CCCN(Cc3ccncc3)C2)CC1	-20.6%
COc1ccc(CCNc2ncnc3sc(C(=O)N(C)C)c(C)c23)cc1OC	4.0%
O=C(c1cccc(F)c1)N1CCC[C@@]2(CCN(Cc3ccncc3)C2)C1	-15.6%
NC(N)=Nc1ccc(Cl)cc1	-13.7%
COc1ccc(SC[C@H](C)CN2CC[C@H](O)CCC2=O)cc1	-5.2%
COc1cccc(Cn2c(=O)c(C)nc3cnc(Oc4cccc(Cl)c4)nc32)c1	u
COc1ccc2c(c1)C(=O)N(CCc1ccc(S(=O)(=O)NC(=O)NC3CCCCC3)cc1)C(=O)C2(C)C	-21.4%[56.6 µM]

A section of the results above:
SMILES	EPAC2 antag
COc1cccc(Cn2c(=O)c(C)nc3cnc(Oc4cccc(Cl)c4)nc32)c1	u
COc1ccc2c(c1)C(=O)N(CCc1ccc(S(=O)(=O)NC(=O)NC3CCCCC3)cc1)C(=O)C2(C)C	-21.4%[56.6 µM]

(next part)
SMILES	EPAC2 antag
NC(=O)N1c2ccccc2C=Cc2ccccc21	u
CC(=O)C1=C(O)C=C2Oc3c(C(C)=O)c(O)c(C)c(O)c3C2(C)C1=O (centres undefined)	0.7%
CS(=O)(=O)Nc1cccc(-c2nc(NCc3ccccc3)c3ccccc3n2)c1	-13.7%
COCCn1c(=O)c(-c2ccc(F)cc2)nc2cnc(N3CCOCC3)nc21	8.8%
CCCCCCCCCCC/C=C\C(C)(C)/C=C\CCCC(=O)O	35.5µM*!
Cc1c(C(=O)NCCCc2ccncc2)cnn1-c1nccc(-c2ccccc2F)n1	-3.6%
COc1ccccc1CC(Cc1nc2ccccc2[nH]1)c1nc2ccccc2[nH]1 (centres undefined)	u
CC(C)(CO)Cc1cc(C(C)(C)C)c(O)c(C(C)(C)C)c1	56.2µM*!
O=Cc1cccc(C=O)c1	13.2%
CC[C@@H]1OC(=O)[C@@H](C)[C@H](O[C@H]2C[C@@](C)(OC)[C@@H](O)[C@H](C)O2)C(C)[C@H](O[C@H]2O[C@@H](C)C[C@@H](N(C)C)[C@@H]2O)[C@@](C)(O)C[C@H](C)C(=O)[C@@H](C)[C@H](O)[C@@]1(C)O (some centres undefined)	-10.6%
O=C(c1cccc(F)c1)N1CCC[C@@]2(CCN(c3ncccn3)C2)C1	-19.5%
COc1cccc(-c2ccnc(-n3ncc(C(=O)NCC4(N5CCCCC5)CCCC4)c3C)n2)c1	1.2%
Cn1cccc1C(=O)N1CCC2(CCN(Cc3ccncc3)CC2)CC1	-10.4%
Cc1ccnc2ccc(N)cc12	4.1%
Cc1ncc2c(c1CNS(=O)(=O)N(C)C)CCN(C(=O)/C=C/c1ccccc1F)C2	0.5%
c1ccc(CNc2cc(-c3cccnc3)ncn2)cc1	-7.3%
CC(=O)Nc1ccc(SC[C@H](Cc2ccccc2)N2CC[C@@H](C)CCC2=O)cc1	-13.5%
CCCCOc1ccc(C(=O)CCN2CCCCC2)cc1	-9.6%
COC1[C@H](OC(N)=O)C(O)[C@H](Oc2ccc3c(O)c(NC(=O)c4ccc(O)c(CC=C(C)C)c4)c(=O)oc3c2C)OC1(C)C (some centres undefined)	-6.2%
N#C/C(=C\c1ccc(O)c(O)c1)C(=O)OCCc1cccs1	u
CN1CCC2(CC1)CCN(C(=O)c1ccncc1)CC2	-10.9%
Cn1cc(-c2nc3cnc(N4CCOCC4)nc3n(CCC#N)c2=O)c2ccccc21	12.2%
OCC(O)C(O)[C@H](O[C@H]1OC(CO)C(O)C(O)C1O)[C@H](O)CO (some centres undefined)	-4.9%
CC/C=C\C/C=C\C/C=C\CCCCCCCCCCCC(=O)O	-13.5%[11.4 µM]
CC(=O)c1ccccc1-c1ccc2c(c1)CC(CNC(=O)C[C@@H]1C[C@@H](C)NC(=S)N1)O2 (some centres undefined)	5.7%
CC[C@]1(O)C[C@@H]2CN(CCc3c([nH]c4ccccc34)[C@](C(=O)OC)(c3cc4c(cc3OC)N(C=O)[C@H]3[C@@](O)(C(=O)OC)[C@H](C(=O)OC)[C@@]5(CC)C=CCN6CC[C@]43[C@H]65)C2)C1	-14.4%
O=c1c(-c2cc(F)cc(F)c2)nc2cnc(N3CCOCC3)nc2n1CCc1ccccc1	-5.0%
CCCS(=O)(=O)NCc1c(C)ncc2c1CCN(C(=O)c1c(F)ccc(F)c1F)C2	6.5%
COCc1c(C(=O)N2CC3CCC2C3)cnn1-c1nccc(-c2ccccc2OC)n1 (centres undefined)	-12.2%
COc1ccc(O)c(CN2CCOc3c(cc(-c4cccc(OC)n4)cc3OC)C2)c1	u

Grouped by structure: the compounds so far with a Cl atom.
SMILES	EPAC2 antag
NC(N)=Nc1ccc(Cl)cc1	-13.7%
COc1cccc(Cn2c(=O)c(C)nc3cnc(Oc4cccc(Cl)c4)nc32)c1	u

Later entries:
SMILES	EPAC2 antag
COc1cc2nc(N3CCCC(O)C3)c(CNCc3ccccc3F)cc2c(OC)c1OC (centres undefined)	18.5%
CNc1ncnc2ccc(-c3cccc(OC)c3)cc12	-32.8%
Clc1ccccc1-c1cncnc1NCc1cccs1	-25.1%
Cn1cnc2c1c(=O)[nH]c(=O)n2C	-8.6%&-15.8%&-6.9%&-12.9%
Cc1cccc2c(Nc3ccc4c(c3)OCO4)nc(CN3CCC(N4CCCCC4)CC3)nc12	-21.4%
CCC[C@@H]1C[C@@H](C(=O)N[C@@H]([C@H]2O[C@H](SC)[C@H](OP(=O)(O)O)[C@@H](O)[C@H]2O)[C@H](C)Cl)N(C)C1	-6.8%&-1.9%
[N-]=[N+]=NC[C@H](Cc1ccccc1)N1CC[C@@H](O)CCC1=O	-5.2%
CN1C(=O)c2ccccc2C1=O	-19.5%[239 µM]
CC(C)(C)[C@H]1CCC(=O)N([C@H](CC#N)Cc2ccccc2)CC1	u
COCCn1c(=O)c(-c2cc(F)cc(F)c2)nc2cncnc21	1.0%
Cc1c(N)nc([C@H](CC(N)=O)NC[C@H](N)C(N)=O)nc1C(=O)N[C@H](C(=O)N[C@H](C)[C@@H](O)[C@H](C)C(=O)N[C@H](C(=O)NCCc1nc(-c2nc(C(=O)NCCCCN=C(N)N)cs2)cs1)[C@@H](C)O)[C@@H](O[C@@H]1O[C@@H](CO)[C@@H](O)[C@H](O)[C@@H]1O[C@H]1O[C@H](CO)[C@@H](O)[C@H](OC(N)=O)[C@@H]1O)c1cnc[nH]1	8.8%&-37.1%
Cc1noc(C)c1-c1nc(N(C)C)c2ccccc2n1	-14.9%
CN(CC(=O)O)c1ccc(/C=C2\C=Cc3ccccc32)cc1	-15.0%&-21.3%
CS(=O)(=O)c1ccc(C(O)C(CO)NC(=O)C(Cl)Cl)cc1 (centres undefined)	-4.4%
O=C(NCCc1nnc2n1CCN(Cc1c(F)cccc1F)CC2)c1ccco1	0.5%
CC(C)(C)CC(C)(C)c1ccc(OCCOCC[N+](C)(C)Cc2ccccc2)cc1	-28.7%&-10.5%
COc1cccc(-c2nccc(NCc3cccnc3)n2)c1	u
CC1CCC(C(C)[C@H]2CCC3C4CC(=O)C5C[C@@H](O)CC[C@]5(C)C4CC[C@@]32C)=NC1 (some centres undefined)	-6.3%
C[C@H](CCC(=O)O)[C@H]1CC[C@H]2[C@H]3C(C[C@H](O)[C@]12C)[C@@]1(C)CC[C@@H](O)C[C@H]1C[C@H]3O (some centres undefined)	-6.6%
CCn1c(-c2cccnc2)nc2cc(NC(=O)COC)cc(C(=O)N3CCOc4ccccc4C3)c21	-2.5%

Exported bar-delimited: 17 of the compounds above
molecule | EPAC2 antag
Cn1cnc2c1c(=O)[nH]c(=O)n2C | -8.6%&-15.8%&-6.9%&-12.9%
Cc1cccc2c(Nc3ccc4c(c3)OCO4)nc(CN3CCC(N4CCCCC4)CC3)nc12 | -21.4%
CCC[C@@H]1C[C@@H](C(=O)N[C@@H]([C@H]2O[C@H](SC)[C@H](OP(=O)(O)O)[C@@H](O)[C@H]2O)[C@H](C)Cl)N(C)C1 | -6.8%&-1.9%
[N-]=[N+]=NC[C@H](Cc1ccccc1)N1CC[C@@H](O)CCC1=O | -5.2%
CN1C(=O)c2ccccc2C1=O | -19.5%[239 µM]
CC(C)(C)[C@H]1CCC(=O)N([C@H](CC#N)Cc2ccccc2)CC1 | u
COCCn1c(=O)c(-c2cc(F)cc(F)c2)nc2cncnc21 | 1.0%
Cc1c(N)nc([C@H](CC(N)=O)NC[C@H](N)C(N)=O)nc1C(=O)N[C@H](C(=O)N[C@H](C)[C@@H](O)[C@H](C)C(=O)N[C@H](C(=O)NCCc1nc(-c2nc(C(=O)NCCCCN=C(N)N)cs2)cs1)[C@@H](C)O)[C@@H](O[C@@H]1O[C@@H](CO)[C@@H](O)[C@H](O)[C@@H]1O[C@H]1O[C@H](CO)[C@@H](O)[C@H](OC(N)=O)[C@@H]1O)c1cnc[nH]1 | 8.8%&-37.1%
Cc1noc(C)c1-c1nc(N(C)C)c2ccccc2n1 | -14.9%
CN(CC(=O)O)c1ccc(/C=C2\C=Cc3ccccc32)cc1 | -15.0%&-21.3%
CS(=O)(=O)c1ccc(C(O)C(CO)NC(=O)C(Cl)Cl)cc1 (centres undefined) | -4.4%
O=C(NCCc1nnc2n1CCN(Cc1c(F)cccc1F)CC2)c1ccco1 | 0.5%
CC(C)(C)CC(C)(C)c1ccc(OCCOCC[N+](C)(C)Cc2ccccc2)cc1 | -28.7%&-10.5%
COc1cccc(-c2nccc(NCc3cccnc3)n2)c1 | u
CC1CCC(C(C)[C@H]2CCC3C4CC(=O)C5C[C@@H](O)CC[C@]5(C)C4CC[C@@]32C)=NC1 (some centres undefined) | -6.3%
C[C@H](CCC(=O)O)[C@H]1CC[C@H]2[C@H]3C(C[C@H](O)[C@]12C)[C@@]1(C)CC[C@@H](O)C[C@H]1C[C@H]3O (some centres undefined) | -6.6%
CCn1c(-c2cccnc2)nc2cc(NC(=O)COC)cc(C(=O)N3CCOc4ccccc4C3)c21 | -2.5%

Later entries.
SMILES	EPAC2 antag
O=c1cnc2cnc(OCc3ccccc3)nc2n1CCc1ccccc1	22.4µM*
Cc1nc2cnc(Nc3ccccc3)nc2n(Cc2cccs2)c1=O	-15.0%
COCc1c(C(=O)N2CCCCCC2)cnn1-c1nccc(-c2cccs2)n1	-0.9%
Cc1ccsc1C1Cc2c(C(=O)NCc3cccnc3)c(=O)cc(C)n2-c2ccccc2S1 (centres undefined)	-13.2%
O=c1[nH]cnc2c1ncn2[C@H]1CC[C@@H](CO)O1	-15.6%
COc1ccccc1CN1CCCC2(CCN(C(=O)c3ccco3)CC2)C1	-16.3%
CS(=O)(=O)Nc1cccc(-c2cncnc2Nc2ccc(F)cc2)c1	-18.0%
COc1cccc(-c2cc(NCc3ccccc3OC)ncn2)c1	u
N#Cc1cccc(NC(=O)N2CC[C@@]3(CCCN(S(=O)(=O)c4ccccc4)C3)C2)c1	u
COc1ccccc1C(=O)N[C@@H]1c2ccccc2C2(CCN(Cc3c(O)cccc3OC)CC2)[C@H]1O	-10.3%
COC(=O)N1CCC[C@@]2(CCN(C(=O)Nc3ccccc3)C2)C1	-25.2%
